# Bioassay records from PubChem.
# NS1 function inh = blocks influenza NS1 protein function | S. cerevisiae slowed by influenza A NS1, growth recovery by OD600 | Potency, µM (doses to about 46.1 µM), for inactives: at the highest dose activity, positive = more growth | 270,000 tested, 0.4% active | AID 2326; active means well fitted rising curve with a large enough effect; inconclusive means small, poorly fitted or top-dose-only effect; inactive means no such curve, though single readings can be large or run the other way; further: nearly all actives have a fitted effect of over 50% in size
#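 A cell-based growth assay was used: compounds that relieve NS1-induced slow growth of budding yeast raise OD600. Assay medium was yeast nitrogen base with ammonium sulphate and -URA supplement, pH 6.0, with 2% galactose.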
# SARS PLP yeast = inhibitors of SARS-CoV papain-like protease in yeast | AID 485353 | S. cerevisiae expressing SARS-CoV PLpro, growth rescue; control for the full effect not named in the record | Potency, µM (titrated, usually from 32.9 µM), for the others: top-dose activity, positive = growth rescue | 330,000 tested, 0.19% active; active means well fitted rising curve with a large enough effect; inconclusive means small, poorly fitted or top-dose-only effect; inactive means no such curve, though single readings can be large or run the other way; further: 0% is about no effect; nearly all actives have a fitted effect of over 55% in size; growth read by luminescence after 48 h
# Marburg entry inh = inhibitors of Marburg virus binding or cell entry. 300,000 tested, 1.8% active. Potency, µM (doses to about 37.8 µM), inactives show at the top dose activity change, negative = inhibition, actives largely listed as inhibitors. Marburg virus pseudotyped entry inhibition, cell reporter; control for the full effect not named in the record; about a third of the inactives were read at about 46 µM; active = well fitted inhibition curve with a large enough effect; inconclusive = small, poorly fitted or top-dose-only effect, or effect the other way; inactive = flat fitted curve, though single readings scatter; tested in HEK293 cells; about a fifth of its hits are not listed in these tables; further: on the % scale 0 is the no-effect control and ±100 the full control effect; luciferase read-out
# RE007 growth inh = less growth of the S. pombe RE007 Vpr strain | S. pombe RE007 Vpr strain, BacTiter-Glo ATP luminescence, 24 h; control for the full effect not named in the record | Potency, µM (titrated, usually from 92.2 µM), without a hit: top-dose activity change, negative = less growth | 360,000 tested, 0.21% active | AID 651644; active = well fitted falling curve with a large enough effect; inconclusive = small, poorly fitted or top-dose-only effect; inactive = no such curve, though single readings can be large or run the other way;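 further: on the % scale 0 is the no-effect control and ±100 the full control effect; nearly all actives have a fitted effect of over 50% in size; the assay follows cell death caused by Vpr and the record does not say whether a fall means rescue or toxicity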
#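 Fission yeast RE007 carrying one integrated HIV-1 vpr copy, seeded at OD 0.01 in PMG+AL medium with 23 nL pinned compound. Grown 24 h at 30 degrees; viability read by BacTiter-Glo luminescence after 5 min.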
# LASV entry inh = blocks Lassa virus binding to or entry into cells. Lassa virus pseudotype entry inhibition, cell reporter; control for the full effect not named in the record. Potency, µM (series often up to 37.9 µM), inactives show top-dose activity change, negative = inhibition, most hits filed as inhibitors. 300,000 tested, 1.2% active. AID 540256; active means well fitted inhibition curve with a large enough effect; inconclusive means small, poorly fitted or top-dose-only effect, or effect the other way; inactive means flat fitted curve, though single readings scatter; tested in HEK293 cells; further: on the % scale 0 is the no-effect control and ±100 the full control effect; nearly all actives have a fitted effect of over 50% in size; luciferase read-out
# 2A StopGo = FMDV 2A StopGo reporter, luciferase signal; human cells with a luciferase reporter of 2A StopGo recoding; control for the full effect not named in the record; Potency, µM (doses to about 57.9 µM), without a hit: at the highest dose signal change, negative = less light; 410,000 tested, 1.2% active; active = well fitted falling curve with a large enough effect; inconclusive = small, poorly fitted or top-dose-only effect; inactive = no such curve, though single readings can be large or run the other way; tested in HEK293T cells; further: on the % scale 0 is the no-effect control and ±100 the full control effect; nearly all actives have a fitted effect of over 45% in size; luciferase light after 4 h
# Cruzain inh noDet = cruzain (T. cruzi) inhibition without detergent. AID 1476. 200,000 tested, 2.3% active. Potency, µM, for inactives: max response, negative = inhibition, hits mostly inhibitors. purified cruzain, Z-FR-AMC fluorescence, no detergent. P25779;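 further: plate controls were enzyme without inhibitor for no effect and buffer without enzyme for full effect; nearly all actives have a fitted effect of over 40% in size; top concentration of the series not given in the record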
# Target sequence (P25779 123-467 limits assumed): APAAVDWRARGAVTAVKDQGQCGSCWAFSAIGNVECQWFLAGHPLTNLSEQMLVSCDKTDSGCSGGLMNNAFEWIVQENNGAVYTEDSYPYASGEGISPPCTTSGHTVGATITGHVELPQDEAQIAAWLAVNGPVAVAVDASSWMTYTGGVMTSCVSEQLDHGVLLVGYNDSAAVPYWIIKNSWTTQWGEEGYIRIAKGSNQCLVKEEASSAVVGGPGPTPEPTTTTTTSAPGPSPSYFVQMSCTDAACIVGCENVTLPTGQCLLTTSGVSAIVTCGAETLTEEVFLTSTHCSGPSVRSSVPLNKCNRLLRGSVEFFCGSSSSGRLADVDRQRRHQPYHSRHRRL
#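 Detergent-free condition (0.00005% Triton X-100) in acetate buffer pH 5.5 with DTT. 1.5 nM enzyme and compound were pre-mixed 15 min, then 2 uM Z-FR-AMC substrate added; reaction progress from fluorescence change between first and third reads (60 s).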
# Cruzain inh Det = cruzain (T. cruzi) inhibition with detergent. P25779. purified cruzain, Z-FR-AMC fluorescence, 0.01% Triton. Potency, µM, without a hit: max response, negative = inhibition, usual class: inhibitors. 200,000 tested, 0.43% active. AID 1478;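 further: plate controls were neutral wells for no effect and buffer without enzyme for full effect; nearly all actives have a fitted effect of over 40% in size; top concentration of the series not given in the record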
#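 Detergent-containing arm of a paired screen for aggregation-based inhibition: 0.01% Triton X-100 present. Cruzain at 1.5 nM cleaved 2 uM Z-FR-AMC at pH 5.5 with 5 mM DTT; AMC fluorescence gain over 60 s measured activity.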
# * = called active by the depositor; ? = inconclusive; / = no result given; [ ] = dose if it differs, or a comment. Unless noted, the call rests on the fitted dose curve; in most records, active means well fitted curve in the direction sought with a large enough effect; inconclusive means small, poorly fitted or top-dose-only effect, or another doubt; inactive means no such curve, though single readings can be large; an effect the other way counts as inactive or inconclusive. Potency means the concentration at half of the fitted maximal effect.
# The line under a structure holds: NS1 function inh | SARS PLP yeast | Marburg entry inh | RE007 growth inh | LASV entry inh | 2A StopGo | Cruzain inh noDet | Cruzain inh Det
CCn1c2ccccc2c2nnc(SCC(=O)Nc3c(C)n(C)n(-c4ccccc4)c3=O)nc21
→ -5% | -5% | -11% | -8% | -28% | -21% | -1% | -3.3%
O=C(NN1C(=O)c2ccccc2NC1c1ccc([N+](=O)[O-])o1)c1ccccc1 (stereo not given)
→ / | 3% | ? | -14% | ? | -2% | / | /
Cc1ccc(S(=O)(=O)NC(CCc2ccccc2)CC(=O)C(C)(C)C)cc1 (stereo not given)
→ -20% | -38% | ? | 3% | ? | -6% | -8% | -8.1%
CCOc1ccccc1NC(=O)Cn1c(=O)n(CCC(=O)NC2CCCC2)c(=O)c2ccccc21
→ 0% | 13% | -7% | / | / | / | 1% | 1.6%
COc1ccc(NC2CCCN(C(=O)CCN3Cc4ccccc4C3=O)C2)cc1 (stereo not given)
→ 1% | -3% | / | 1% | / | -20% | / | /
Cc1ccccc1C(=O)OC1OC(=O)C(Cl)=C1Nc1ccc(C(=O)O)cc1 (stereo not given)
→ / | -1% | 5%[46.1 µM] | -6% | 3% | -20% | / | /
O=C(c1ccco1)N(CCCN1CCOCC1)c1nc(-c2ccc(Cl)cc2)cs1
→ -40% | ? | ? | 0% | ? | ? | -11% | -22%
COC(=O)c1ccnc(SCC(=O)c2ccccc2)c1
→ 21% | -5% | ? | 1% | 3% | 11% | -6% | -3.4%
Cc1cc(C)n2nc(SCC(=O)NC(=O)c3ccccc3)nc2n1
→ / | 0% | -3%[46.1 µM] | 3% | 1%[46.1 µM] | 4% | / | /
C=CCSc1nc(N)c(C#N)c(-c2ccccc2)c1C#N
→ -8% | 2% | 0% | -2% | -26% | -8% | -3% | -7.6%

# Results in Marburg entry inh, SARS PLP yeast and LASV entry inh (three entries from above):
structure | Marburg entry inh | SARS PLP yeast | LASV entry inh
O=C(NN1C(=O)c2ccccc2NC1c1ccc([N+](=O)[O-])o1)c1ccccc1 (stereo not given) | ? | 3% | ?
O=C(c1ccco1)N(CCCN1CCOCC1)c1nc(-c2ccc(Cl)cc2)cs1 | ? | ? | ?
COC(=O)c1ccnc(SCC(=O)c2ccccc2)c1 | ? | -5% | 3%

# (cont.)
# The line under a structure holds: NS1 function inh | SARS PLP yeast | Marburg entry inh | RE007 growth inh | LASV entry inh | 2A StopGo | Cruzain inh noDet | Cruzain inh Det
COc1ccc(-c2nnn(Cc3nc(N)nc(N4CCCCC4)n3)n2)cc1
→ -32% | -18% | -2% | 7% | ? | 0% | 8% | -4.4%
Cc1ccc(NC(=O)CN(c2ccc3c(c2)OCO3)S(=O)(=O)c2c(C)n[nH]c2C)cc1
→ -43% | 4% | / | 14% | / | -24% | -16% | 0.4%
O=C(CN1CCOCC1)Nc1cccc(S(=O)(=O)N2CCCCCC2)c1
→ / | 0% | -8%[46.1 µM] | 0% | ? | -6% | / | /
C#CCN(C(=O)c1cc(COc2ccc(C)c(C)c2)on1)C1CCCCC1
→ -39% | -4% | ? | -2% | ? | -30% | / | /
O=C(C1=C[C@H](c2ccc(Br)cc2)C[C@H](OCc2ccc(CO)cc2)O1)N1CCN(Cc2ccc3c(c2)OCO3)CC1
→ -2% | -1% | / | -7% | / | 0% | / | /
COc1ccccc1N1CCN(C(=O)C(=O)c2c(C)n(C)c3ccccc23)CC1
→ -13% | -5% | -15%[46.1 µM] | 233% | -22%[46.1 µM] | -16% | / | /
FC(F)Oc1ccc(NC(=S)NC2CCSc3ccccc32)cc1 (stereo not given)
→ -4% | -3% | -29% | 21% | -23% | 0% | / | /
COc1ccc(-c2ccc([C@H]3[C@H]4C=CC[C@@H](C)[C@@H]4C(=O)N3Cc3ccccc3)c(F)c2)cc1OC
→ 15% | -2% | / | 0% | / | -27% | / | /
CCc1nc(SCC(=O)N2c3ccccc3Sc3ccccc32)c2ccccc2n1
→ 1% | -2% | ? | 22% | ? | -2% | ? | 1.0%
Cn1c(=O)c2[nH]c(Nc3ccccc3)nc2n(C)c1=O
→ 0% | -10% | ? | 9% | ? | -12% | -3% | -5.9%
O=C(O)c1ccc(NC(=O)c2ccccc2Br)c(NC(=O)c2ccccc2Br)c1
→ ? | 0% | / | ? | / | -1% | / | /
CCN(CC)C(=O)c1c(Cl)nc(C)c([N+](=O)[O-])c1C
→ 4% | -5% | ? | -7% | 4% | 7% | -5% | 0.5%
CCc1cc2c(=O)c(-c3cnn(-c4ccccc4)c3)c(C)oc2c(CN2CCCCC2)c1O
→ -1% | 8% | ? | 7% | 0% | ? | -5% | -3.1%
CC(C(=O)NC1CCCCCC1)n1cc([N+](=O)[O-])cn1 (stereo not given)
→ 1% | -5% | 12%[46.1 µM] | 2% | -12% | -4% | / | /
COC(=O)c1c(C(=O)OC)c2ccccn2c1C(=O)c1ccc([N+](=O)[O-])cc1
→ 2% | 2% | -4% | 2% | -4% | ? | / | /
CCOC(=O)N1CCN(C(=O)CSc2nnc(Cn3c(=O)sc4ccccc43)n2C)CC1
→ 0% | 4% | / | 2% | / | -2% | 24% | -2.1%
Cc1ccc(/C=N/NC(=O)c2csc(C)c2)o1
→ 3% | -23% | 13% | -4% | ? | 50%[activator] | -18% | -7.4%
O=S(=O)(Cc1nnnn1-c1ccccc1)c1ccc(F)cc1
→ 18% | -1% | / | 17% | / | -22% | / | /
O=C(NCc1cccc(C(F)(F)F)c1)C1CC(c2ccc(C(F)(F)F)cc2)=NO1 (stereo not given)
→ 6% | -3% | / | 0% | / | -5% | / | /
Cc1cc(C)n(-c2nc3ccccc3n3nnnc23)n1
→ 2% | 0% | -2% | -8% | 17% | 3% | -9% | 6.1%
CCN(CC)c1ccc(S(=O)(=O)N2CCOCC2)cc1NC(=O)CSC(=S)N1CCCC1
→ 16% | 9% | -31%[46.1 µM] | -4% | -25%[46.1 µM] | 32%[activator] | / | /
Cc1nonc1NC(=O)CSc1nnc(-c2ccoc2C)n1-c1cccc(Cl)c1
→ 0% | 16% | -23% | 25% | -10% | -8% | 26% | -6.6%
O=C(CSc1nc2ccccc2n1CCc1ccccc1)NC1CC1
→ -9% | -10% | 24%[46.1 µM] | 3% | 5% | -16% | 3% | -2.0%
COc1cc(OC)cc(C(=O)N2CCC(C(=O)NCCc3ccccc3)CC2)c1
→ -18% | 2% | / | 1% | / | 0% | / | /
CC(=O)NS(=O)(=O)c1ccc(NC(=O)c2ccccn2)cc1
→ / | 0% | 0%[46.1 µM] | -2% | 7%[46.1 µM] | -1% | / | /
Cc1ccccc1NS(=O)(=O)c1ccc(-c2ccc(=O)[nH]n2)o1
→ -2% | 3% | 30%[46.1 µM] | -13% | -9%[46.1 µM] | -9% | / | /
NC(=O)c1c(NC(=O)COC(=O)c2ccc(S(=O)(=O)Nc3ccccc3)cc2)sc2c1CCCC2
→ / | 1% | 22% | -13% | -14% | -11% | / | /
CCOCCn1c(=O)c2c(nc3n2CCN3c2ccc(C)c(C)c2)n(C)c1=O
→ / | 5% | / | / | -23%[46.1 µM] | -14% | 1% | -3.3%
CCOC(=O)C1CCN(C(=O)/C=C/c2ccccc2OC)CC1
→ -13% | -2% | 5% | -6% | 19% | 20% | 1% | 2.0%
Cc1noc(C)c1CS(=O)(=O)c1ccc([N+](=O)[O-])cc1
→ -1% | 0% | -1%[46.1 µM] | -3% | 0% | -18% | / | /
COc1ccc(OC)c(NC(=O)CCN2CCN(C/C=C/c3ccccc3)CC2)c1
→ 12% | 8% | / | -11% | / | -28% | / | /
O=CN1CCN(C(=O)Cc2ccc([N+](=O)[O-])cc2)CC1
→ 15% | -14% | -22% | -3% | ? | -13% | 2% | -1.5%
CC(C)C(=O)Nc1c(-c2cccs2)c(=O)c2ccccc2n1C
→ -5% | -2% | 20% | 1% | 3% | 8% | 0% | -2.2%
COc1cccc(S(=O)(=O)Nc2noc3ccccc23)c1
→ 7% | -1% | / | 20% | / | 59%[activator] | / | /
CCN1CCCC1CN=Cc1c(O)n(-c2ccccc2)c(=O)c2ccccc12 (stereo not given)
→ 5% | 3% | -1% | -15% | -1% | 13% | 2% | 3.1%
O=C1c2ccccc2C(O)(Cc2ccccc2)N1c1ccc2c(c1)OCO2 (stereo not given)
→ -7% | -12% | -2% | 2% | 12% | / | -23% | -7.8%
CCOC(=O)c1c(-c2ccccc2)csc1NC(=O)c1cc2ccccc2oc1=O
→ 15% | -7% | 23% | 2% | -2% | 2% | 16µM* | -2.7%
CCCCn1c(N)c(N(CCOC)C(=O)C2CCN(S(=O)(=O)c3ccc(C)cc3)CC2)c(=O)[nH]c1=O
→ / | -7% | 1% | 2% | 7% | -15% | / | /
Cc1c([N+](=O)[O-])c(C(=O)N2CCCC2)nn1C
→ -10% | 6% | -1% | 1% | 2% | 6% | -14% | 1.7%
CCc1nc2ccc(C(=O)Nc3cccc(C(C)=O)c3)cc2nc1CC
→ -13% | 4% | -9% | -7% | -4% | ? | 29% | -9.4%
CCOC(=O)c1c(-c2ccc(Cl)cc2)cn2ccccc12
→ 5% | 4% | 17% | 5% | 1% | 6% | -3% | -13%
CCC(C(=O)Nc1ccc(N2CCOCC2)c(S(=O)(=O)Nc2ccccc2OC)c1)c1ccccc1 (stereo not given)
→ / | 1% | ? | -20% | ? | 57%[activator] | / | /
Cc1cc(C)c(C(=O)CSc2n[nH]c(=O)n2C2CC2)cc1C
→ -2% | 4% | ? | -3% | -16% | ? | 7% | -7.5%
OC(c1ccc(F)cc1)(C1CCCCC1)C(CN1CCOCC1)c1ccccc1 (stereo not given)
→ -62% | -3% | / | 1% | / | -26% | / | /

# Two records picked at random from those above:
# The line under a structure holds: NS1 function inh | SARS PLP yeast | Marburg entry inh | RE007 growth inh | LASV entry inh | 2A StopGo | Cruzain inh noDet | Cruzain inh Det
OC(c1ccc(F)cc1)(C1CCCCC1)C(CN1CCOCC1)c1ccccc1 (stereo not given)
→ -62% | -3% | / | 1% | / | -26% | / | /
CCC(C(=O)Nc1ccc(N2CCOCC2)c(S(=O)(=O)Nc2ccccc2OC)c1)c1ccccc1 (stereo not given)
→ / | 1% | ? | -20% | ? | 57%[activator] | / | /
